RecA intein inh: Mtb RecA intein splicing inhibitors, primary screen, biochemical, fluorescence, HTS; 290,000 compounds, 0.75% hits; inhibition, %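 (about 9 µM by stock and volumes)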; cell-free RecA intein splicing; in the data active = inhibition above about 30%; inconclusive = no clear call, values can overlap the other calls;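 also: 0% = vehicle wells and 100% = reference inhibitor control wells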
Target sequence (P9WHJ3 whole entry, looked up): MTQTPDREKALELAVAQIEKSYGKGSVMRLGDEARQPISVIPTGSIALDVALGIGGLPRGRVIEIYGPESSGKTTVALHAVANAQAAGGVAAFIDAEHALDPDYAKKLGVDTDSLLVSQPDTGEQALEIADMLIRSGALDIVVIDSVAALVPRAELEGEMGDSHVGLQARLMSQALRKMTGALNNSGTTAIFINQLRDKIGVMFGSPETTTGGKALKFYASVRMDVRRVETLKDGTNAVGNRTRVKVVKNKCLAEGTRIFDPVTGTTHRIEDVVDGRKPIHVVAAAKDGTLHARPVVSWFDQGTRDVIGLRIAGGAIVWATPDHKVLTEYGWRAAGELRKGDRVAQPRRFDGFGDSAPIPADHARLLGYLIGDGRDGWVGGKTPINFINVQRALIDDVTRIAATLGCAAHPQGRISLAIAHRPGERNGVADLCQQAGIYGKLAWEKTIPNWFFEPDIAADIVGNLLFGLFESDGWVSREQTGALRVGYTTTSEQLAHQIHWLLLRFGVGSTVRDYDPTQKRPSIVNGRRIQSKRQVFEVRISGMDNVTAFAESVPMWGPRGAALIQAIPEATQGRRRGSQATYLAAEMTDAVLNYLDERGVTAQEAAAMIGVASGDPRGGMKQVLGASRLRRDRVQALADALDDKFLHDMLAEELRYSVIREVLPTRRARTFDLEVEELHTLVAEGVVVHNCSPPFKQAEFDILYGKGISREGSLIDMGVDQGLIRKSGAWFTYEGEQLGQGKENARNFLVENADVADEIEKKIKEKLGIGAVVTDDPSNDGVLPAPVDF
Mtb betalactam: beta-lactam sensitization of Mtb H37Rv, H37Rv. AID 434955, 2010. M. tuberculosis H37Rv growth with meropenem, percent inhibition; hits of this screen are not shown here. inhibition, % at 25 µM. 330,000 compounds, 0.27% hits;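 active = about 74% or more and at least 40 points above the plate without the antibiotic, then above 30% in a dose series; inconclusive = first-round hits that could not be retested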;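 also: growth measured after seven days incubation then overnight dye step; 0% = bacteria only wells and 100% = bacteria with antibiotic; twin plates without the antibiotic show which effects depend on it; some results filed as inactive read as strong as hits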
YopH inh: YopH tyrosine phosphatase inhibitors, primary screen, biochemical, fluorescence Ex485/Em525; YopH tyrosine phosphatase [Yersinia enterocolitica]; inhibition, %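 (about 10 µM by stock and volumes)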; 140,000 compounds, 0.16% hits;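 active = inhibition of 50% or more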;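 also: controls were vehicle for no effect and minimum signal wells for full effect; inactives centre near -20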
Mtb H37Rv: M. tuberculosis H37Rv growth inhibitors, H37Rv strain (AID 1626); 220,000 compounds, 0.95% hits; M. tuberculosis H37Rv growth inhibition; higher % means a stronger effect; inhibition, % at 10 µM; hits with a dose series show IC50 in µM;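 active = confirmed in a dose series; inconclusive = inhibition above 80% but not taken into the dose series; inactive = below 80% or under 30% at every dose of the series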;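 also: bacteria incubated seven days before Alamar blue readout; 0% = bacteria only wells and 100% = bacteria with antibiotic wells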
Arbovirus inh: antivirals against arbovirus infection, primary screen, cell-based, full library, 10K replicate subset. arbovirus infection cell-based antiviral screen. inhibition, % at 10 µM. 200,000 compounds, 0.37% hits;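 active = inhibition from about 30%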;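 also: bluetongue infection of BSR cells; cell survival read as ATP light after 72 h; 0% = infected wells without compound and 100% = uninfected wells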
Arbovirus inh repeat: recorded beside Arbovirus inh, whose call it bears; inhibition, %; measured here: 10K subset replicate screen; many hits read low in the repeat;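 first of two repeat runs on a subset; 0% = infected and 100% = uninfected wells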
The depositor's hits bear a star; ? = inconclusive; . = no result given. Only part of the results is shown; rates above refer to the full screens.

SMILES	RecA intein inh	Mtb betalactam	YopH inh	Mtb H37Rv	Arbovirus inh	others
Cc1cc2nc(C3CCN(Cc4nnnn4Cc4ccccc4)CC3)[nH]c2cc1C	2.6	5	-15	10%	-18
O=C(NCC1CCN(C(=O)c2c(F)c(F)c(F)c(F)c2F)CC1)c1c(F)c(F)c(F)c(F)c1F	0.4	0	.	.	.
CCCCNC(=O)C1CC(c2cccc([N+](=O)[O-])c2)=NO1 (centres undefined)	-11	1	4	0%	-4
CCOCCCn1c(C)nc2c[n+](CC(=O)c3ccc4ccccc4c3)cc(Br)c21	3.1	-1	.	3%	.
CCOC(=O)C1CCCN(CC(=O)Nc2c(C(=O)OC)[nH]c3ccccc23)C1 (centres undefined)	0.7	5	-4	0%	4
N#Cc1cc2ccccc2nc1SCC(=O)Nc1ccccc1N1CCOCC1	-1.7	-8	-25	.	-8
C=CCn1c(SCC(O)Cn2c3ccccc3c3ccccc32)nnc1-c1ccco1 (centres undefined)	18	-3	-41	8%	-17
CCCCNC(=O)c1nnn(-c2ccccc2)c1N	-0.4	7	-16	-6%	0
Cc1ccc2c(c1)oc(=O)n2CC(=O)c1ccccc1	1.0	5	.	6%	.
O=C(Cn1cc(C(F)(F)F)ccc1=O)N/N=C/c1ccc(F)cc1	1.2	7	.	-2%	3

Retrieved by structure from the entries so far, 3 records:
SMILES	RecA intein inh	Mtb betalactam	YopH inh	Mtb H37Rv	Arbovirus inh	others
C=CCn1c(SCC(O)Cn2c3ccccc3c3ccccc32)nnc1-c1ccco1 (centres undefined)	18	-3	-41	8%	-17
O=C(Cn1cc(C(F)(F)F)ccc1=O)N/N=C/c1ccc(F)cc1	1.2	7	.	-2%	3
O=C(NCC1CCN(C(=O)c2c(F)c(F)c(F)c(F)c2F)CC1)c1c(F)c(F)c(F)c(F)c1F	0.4	0	.	.	.

The listing picks up, repeating the six entries before the break.
SMILES	RecA intein inh	Mtb betalactam	YopH inh	Mtb H37Rv	Arbovirus inh	others
CCOC(=O)C1CCCN(CC(=O)Nc2c(C(=O)OC)[nH]c3ccccc23)C1 (centres undefined)	0.7	5	-4	0%	4
N#Cc1cc2ccccc2nc1SCC(=O)Nc1ccccc1N1CCOCC1	-1.7	-8	-25	.	-8
C=CCn1c(SCC(O)Cn2c3ccccc3c3ccccc32)nnc1-c1ccco1 (centres undefined)	18	-3	-41	8%	-17
CCCCNC(=O)c1nnn(-c2ccccc2)c1N	-0.4	7	-16	-6%	0
Cc1ccc2c(c1)oc(=O)n2CC(=O)c1ccccc1	1.0	5	.	6%	.
O=C(Cn1cc(C(F)(F)F)ccc1=O)N/N=C/c1ccc(F)cc1	1.2	7	.	-2%	3
COc1cc(C(=O)NCC(c2cccnc2)N2CCN(C)CC2)cc(OC)c1OC (centres undefined)	1.6	-6	13	-7%	18
Cc1cc(C(=O)N/N=C/c2cccs2)n[nH]1	-0.5	-2	.	2%	2
CN=Cc1nc(-c2ccccc2)oc1O	-2.6	0	-31	0%	-10
O=S1(=O)CC(N2CCOCC2)c2ccccc21 (centres undefined)	3.6	-7	-28	-2%	-8
CC(=O)NS(=O)(=O)c1ccc(N=c2ssc3c2-c2ccc(C)cc2NC3(C)C)cc1	6.8	31	-4	4%	-34
O=[N+]([O-])c1ccc(Cl)c(C2Nc3cccc4cccc(c34)N2)c1	-3.6	0	-48	-2%	-4
NC(=O)C1CCN(C(=O)CSc2nc3ccccc3[nH]2)CC1	0.1	-4	-3	0%	5
CCN(Cc1ccccc1)S(=O)(=O)c1cc(C(=O)OC)n(C)c1	2.8	?	.	.	.
COc1cccc(-c2ncc3ccccn23)c1	1.9	-13	3	-3%	-3
O=C(CN1C(=O)/C(=C/c2cccc(Br)c2)SC1=S)N1CCCC1	-4.0	88	-21	8%	19
Cc1cc(Sc2ccc([N+](=O)[O-])cn2)ccc1Br	0.6	1	.	.	.
COc1ccc(S(=O)(=O)N2CCCN(S(=O)(=O)c3ccc(OC)cc3C)CC2)c(C)c1	0.8	7	-25	-3%	-2	Arbovirus inh repeat=-5
Cc1ccc(/C=C/c2onc(C)c2S(=O)(=O)N2CCC(C(=O)N3CCCCC3)CC2)cc1	-0.6	-9	.	.	.
CCC(=O)C1CCCN(C(=O)c2cccc(OC3CCN(S(C)(=O)=O)CC3)c2)C1 (centres undefined)	-3.2	-4	.	.	.
CN(CCc1cn[nH]c1)Cc1nc(Cc2ccccc2)no1	-1.0	-1	.	-11%	2
Cc1ccc(COC(=O)Cc2coc3cc(O)ccc23)cc1	20	-4	.	.	.
COc1ccc(C(=O)n2c(N)nc3ccccc32)cc1OC	-3.6	62	.	.	.
CN1CCC(OC(=O)c2ccc(Br)cc2)CC1	.	-3	-15	-14%	.
COc1ccc(OC)c(-c2nn(-c3ccccc3)cc2C(=O)NCC(c2cccs2)N2CCOCC2)c1 (centres undefined)	3.6	4	.	.	.
CC(C)=C(NC(=O)c1ccccc1)C(=O)N/N=C(\C)c1ccccc1O	-1.8	-3	-2	-8%	-8
CCN(CC)CCNc1nc2c(c(=O)[nH]c(=O)n2C)n1CCCc1ccccc1	-6.5	-3	.	.	.
Cc1cc(=O)oc2cc3oc(=O)cc(C)c3cc12	8.0	-6	.	.	.
O=C(NCC1CCCO1)c1ccccc1NC(=O)c1cccc2ccccc12 (centres undefined)	4.1	-17	-33	-3%	3
CCOC(=O)C1CCCN(CCC(=O)Nc2ccc(Br)c(C)c2)C1 (centres undefined)	-0.3	1	.	.	.
Cc1ccc(C(=O)c2ccccc2C(=O)O)s1	0.2	-7	-11	-1%	5
COC(=O)c1ccc(CNC(=O)c2ccc3c(c2)OCCO3)cc1	-0.4	4	.	.	.
O=C(CSc1nnnn1-c1cccc(O)c1)NC1CC1	-0.3	1	.	.	.
Cc1ccc(/C=C2\SC(N3CCCC3)=NC2=O)cc1	1.3	100	.	?	-9
O=S(=O)(c1ccc(S(=O)(=O)N(Cc2ccco2)Cc2ccccc2Cl)cc1)N1CCCC1	-1.5	-7	18	-2%	5
O=C1C=C(NCCc2ccccc2)C2(CCCCC2)O1	-1.1	-1	.	-9%	2
CN1CCc2nc(NC(=O)c3cccc(S(=O)(=O)N4CCc5ccccc54)c3)sc2C1	.	14	-28	11%	-8
COc1ccc(NC(=O)/C(=C\c2ccc(OS(=O)(=O)c3ccc(C)cc3)cc2)NC(=O)c2ccccc2)cc1	0.5	-2	-17	-4%	-9
Cc1cc(=O)[nH]c2c1c(C)nn2C1CCCC1	.	-8	-35	-3%	7
Cn1cnnc1SCc1ccc(F)c2ccccc12	0.0	-3	-20	-3%	5
CCOC(=O)CC(=O)CSc1nc2c(sc(=S)n2-c2ccc(C)c(C)c2)c(=O)[nH]1	-1.2	-15	.	.	.
CC1CC1C(=O)OCC(=O)NCc1ccc(Cl)cc1Cl (centres undefined)	-3.5	-4	5	.	-2
COC(=O)[C@H]1C[C@@H]1[C@H](NC(=O)c1cc(C)on1)c1ccccc1	-3.0	-8	-38	-2%	-10
CC(=O)NC1C(=O)N=C(SCC(=O)Nc2sc3c(c2C#N)CCCCCC3)NC1=O (centres undefined)	1.6	4	.	-3%	15
COc1ccc(C)cc1NC(=O)C1CCN(C(=O)Cc2ccccc2)CC1	-0.6	-5	.	12%	9
COc1ccccc1C(=O)N/N=C1/NC(=O)CC(C(=O)Nc2ccccc2)S1 (centres undefined)	0.9	13	.	.	.
CSc1ncccc1C(=O)OCC(=O)N(C)C	-3.9	-4	.	-7%	0
Cc1occc1-c1nnc(SCC(N)=O)o1	0.5	-3	.	1%	-4
CCN(CC)C(=O)Oc1ccc2oc(=O)cc(-c3cc4cccc(OC)c4o3)c2c1	2.3	11	.	.	.
CN1CCN(C(=O)c2cc(Cl)cc(Cl)c2)CC1	-0.8	-10	.	.	.
CC(C)CN(C(=O)CSc1nnnn1-c1ccccc1)c1c(N)n(CC(C)C)c(=O)[nH]c1=O	-0.3	0	.	2%	3
CC(C)(CNC(=O)c1ccc(S(=O)(=O)Nc2ccccc2F)cc1)N1CCOCC1	3.9	-15	.	.	.
O=C(Nc1ccccc1)c1ccc[n+](Cc2ccc([N+](=O)[O-])cc2)c1	-3.6	11	-16	1%	-10
CN(Cc1ccccc1)C(=O)C1CCN(S(=O)(=O)c2cccc3nonc23)CC1	-0.2	4	.	.	.
O=C(CS(=O)(=O)Cc1ccccc1)Nc1nnc(C2CCCCC2)s1	-0.1	-1	-25	-18%	-2
O=C(COc1ccccc1)NCc1ccccc1	1.0	10	-15	8%	0

Next section.
SMILES	RecA intein inh	Mtb betalactam	YopH inh	Mtb H37Rv	Arbovirus inh	others
COCc1cc(=O)[nH]c2cc(NC(=O)C(F)(F)F)c(C)cc12	-0.5	7	-14	-8%	-6
O=C(c1ccccn1)N1CCCC(N2CCN(c3ccccc3)CC2)C1 (centres undefined)	-2.1	1	.	.	.
CC(C)CCOP(=O)(c1ccc(N(C)C)cc1)C(O)c1ccccn1 (centres undefined)	-0.7	5	-41	0%	-1
NS(=O)(=O)c1cccc(NC(=O)CSc2nc3nc(-c4cccs4)cc(C(F)(F)F)c3c(=O)[nH]2)c1	0.6	-12	.	-14%	.
COc1ccc(Br)cc1/C=N/n1c(C)nnc1C	2.4	-11	0	-1%	17	Arbovirus inh repeat=-4
O=c1cc(CN2CCN(S(=O)(=O)c3ccc4ccccc4c3)CC2)nc2sccn12	-0.2	-2	.	2%	2
CN(C(=O)/C=C/c1ccccc1)C1CCCCC1	-0.8	10	.	.	.
O=c1c2c3c(sc2ncn1/N=C/c1cccnc1)CCCC3	0.8	5	.	-4%	-3
COc1ccc(OCC(O)CNS(=O)(=O)c2cccc(Cl)c2)cc1 (centres undefined)	-3.0	4	.	17%	.
COC(=O)[C@@H](NC(=O)Nc1ccc(OC(F)(F)F)cc1)C(C)C	-0.7	-8	-22	-9%	9
COc1ccc(C(=O)N=C2SC3CS(=O)(=O)CC3N2c2ccccc2)cc1OC (centres undefined)	-1.3	-11	.	.	.
CC1=NN(C(=O)COc2ccc(C)c(C)c2)C(O)(c2ccc(Cl)cc2)C1 (centres undefined)	0.2	1	-16	4%	-30
O=C(CSc1nnc(C2COc3ccccc3O2)o1)N1CCCC1 (centres undefined)	6.4	6	.	-1%	3
Cc1[nH]c(=O)c(C#N)c(C)c1CCC(=O)NCc1cccc(C(F)(F)F)c1	-3.8	3	.	.	.
O=C(Nc1cccc(F)c1)c1ccc(S(=O)(=O)NCC2CCCO2)cc1 (centres undefined)	-3.0	4	-23	-5%	1
CCOC(=O)c1nnn(-c2nonc2N)c1COc1ccc(F)cc1	-1.3	-2	0	-3%	7
S=c1[nH]nc(-c2ccncc2)n1/N=C/c1ccccc1Cl	0.9	-12	.	-2%	.
CCc1cc(=O)[nH]c(SCC(=O)Nc2ccc3c(c2)OCCO3)n1	-1.9	-9	.	.	.
Cc1ccsc1/C=N/NC(=O)C(N)=O	-2.0	1	.	-11%	-5
COc1cccc(C(=O)N[C@@H](CCSC)c2nc3ccccc3[nH]2)c1	-0.9	1	.	-2%	-8
O=c1[nH]c(/C=C\c2ccc(O)cc2)nc(O)c1[N+](=O)[O-]	-0.3	3	.	.	.
O=C(NNC(=O)c1ccccc1C(=O)O)c1ccc(O)cc1	7.4	-1	.	1%	3
COc1ccc(CC(=O)NCc2nnc(SCC(=O)Nc3nccs3)n2-c2ccccc2)cc1	-0.4	5	3	-3%	1	Arbovirus inh repeat=-2
COc1ccccc1N1CC(O)=C(c2nc3ccccc3c(=O)[nH]2)C1=N	1.0	-3	-26	-7%	-13
Cc1cc(C)cc(Oc2ccccc2C=O)c1	1.9	-2	-47	-1%	-5
Cc1ccc(NC2CCCN(C(=O)c3cccs3)C2)cc1C (centres undefined)	-0.4	3	.	.	.
COc1ccccc1CNC(=O)CS(=O)Cc1nc(-c2ccc(OC)c(OC)c2)oc1C (centres undefined)	1.1	1	.	.	.
Cn1c(SCC(=O)Nc2cccc(Br)c2)nnc1-c1cc2ccccc2o1	2.0	4	-10	-1%	-15
Cc1nc2ccc(NC(=O)c3cccs3)cc2c(=O)n1Cc1ccc(Cl)cc1	.	1	-11	40%	-13
CN(C(=O)COC(=O)c1cc(F)c(F)cc1Cl)c1ccccc1	-2.8	84	.	.	.
CCOC(=O)Cn1c(=NC(=O)C2COc3ccccc3O2)sc2cc(S(N)(=O)=O)ccc21 (centres undefined)	-1.1	2	-25	3%	2
CCc1noc(C)c1C(=O)N(Cc1ccccc1)c1c(N)n(CCOC)c(=O)[nH]c1=O	-4.5	-7	.	.	.
CCOC(=O)c1[nH]c2ccc(OC)cc2c1NC(=O)C(C)N1CCSCC1 (centres undefined)	1.5	.	-9	4%	-3
O=C(NCc1cccc(Cl)c1)c1ccc2nc(N3CCOCC3)sc2c1	2.3	-8	.	.	.

Compound activity as filed in PubChem BioAssay.
